Env fusion inh: blocks HIV Env-driven cell-cell fusion | HeLa-JRFL Env/CEM21 cell fusion, luciferase | AID 651610 | 1.1% of 360,000 active | inhibition, % at 12.3 µM;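 active = mean replicate inhibition score of at least 50 and every replicate individually at or above 50; inconclusive = only one of the two criteria met; inactive = mean below 50 and not all replicates reaching 50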;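 also: 0% = plate neutral controls and 100% = maraviroc near 300 nM; one replicate is shown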
Yeast UUG start: modulators of start codon recognition fidelity in yeast; S. cerevisiae UUG-firefly luciferase reporter, luminescence/redox ratio; activity score, % at 18.7 µM; 0.13% of 350,000 active; AID 602363;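 active = replicate mean at a twofold rise or more, about +100% in these data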;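 also: firefly luciferase made from a UUG start codon reports start codon fidelity; reporter light over untreated wells divided by growth signal over untreated wells; some hits fall short of that in this replicate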
eIF4H FP inh: inhibitors of RNA binding by human eIF4H | Q15056 | eIF4H fluorescence polarization binding assay | inhibition, % at 35 µM | 0.94% of 290,000 active;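 active = 50% or more with normal probe brightness, or confirmed in later tests; inconclusive = above 50% with abnormal brightness, or retests that disagree; inactive = below 50% or failed in later tests; about a fifth of its hits are not listed in these tables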;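 also: calls also rest on retests at 20 µM and on dose response follow-up; 0% = protein and probe with vehicle and 100% = probe without protein; strong numbers were not always called active; many hits fall short of the cut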
MT1-MMP act inh: inhibitors of human MT1-MMP activation; P50281; HT1080 RFP-PRO-GFP cells, GFP/RFP ratio fluorescence, overnight; percent of plate control window, DMSO zero; GFP/RFP ratio change, % at 20 µM; 0.061% of 360,000 active; AID 651647;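 active = GFP/RFP ratio change of at least 30% with cell ATP level not reduced by more than half and red fluorescence within 50% of control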; also: strong numbers were not always called active
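Assay system: HT1080 RFP-PRO-GFP cells | Dosing: 20 µM single dose, 1% DMSO | Incubation: Cells overnight before dosing, compound overnight, 37 °C, 5% CO2 | Evaluation: GFP/RFP fluorescence ratio | Control set: DMSO-only wells and HT1080 RFP-L50D-GFP cell wells as references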
Rce1 inhib: blocks yeast Ras-converting enzyme; Q03530; yeast membranes, quenched prenylated peptide cleavage fluorescence; calls only; 0.27% of 290,000 active;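 active = fall in fluorescence gain of 50% or more versus controls, with final raw signal at or below 3038400; inconclusive = same 50% fall but final raw signal above 3038400; inactive = fall in fluorescence gain under 50%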;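 also: plate controls were neutral control wells for no effect and wells lacking membranes for full effect; tested at 10 µM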
Target sequence (Q03530 whole entry, looked up): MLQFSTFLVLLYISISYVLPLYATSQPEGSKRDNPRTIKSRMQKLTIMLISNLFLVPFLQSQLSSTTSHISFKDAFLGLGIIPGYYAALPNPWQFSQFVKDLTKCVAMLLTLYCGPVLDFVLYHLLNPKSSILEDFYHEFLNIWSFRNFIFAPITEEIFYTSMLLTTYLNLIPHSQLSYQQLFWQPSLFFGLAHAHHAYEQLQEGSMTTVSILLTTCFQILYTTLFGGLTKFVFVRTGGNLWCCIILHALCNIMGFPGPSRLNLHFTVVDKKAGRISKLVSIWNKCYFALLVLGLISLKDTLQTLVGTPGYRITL
CSC inhib: cancer stem cell inhibition; cancer stem cell-like cells viability, luminescence; inhibition, % at 7.5 µM; 1.1% of 300,000 active; AID 2717;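 active = mean at 75% or more and at least half the replicates too; inconclusive = mean and replicates disagree; tested in HMLE shEcad cells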;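 also: 0% = median of negative and 100% = median of positive control wells; the first replicate is given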
PABP FP inh: blocks human PABP binding to poly(A) RNA; P11940; inhibition, % at 35 µM; 1% of 290,000 active; fluorescence polarization;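 active = 50% or more with normal probe brightness, or confirmed in later tests; inconclusive = above 50% with abnormal brightness, or retests that disagree; inactive = below 50% or failed in later tests; about a fifth of its hits are not listed in these tables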;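 also: calls also rest on retests at 20 µM and on dose response follow-up; controls were probe without protein and protein plus probe with vehicle; some compounds called inactive have numbers as strong as hits; many hits fall short of the cut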
MT1-MMP act inh RFP: second read-out of MT1-MMP act inh, no call of its own (marks repeat the call); RFP signal change, %; measured here: RFP expression control read;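 0 = vehicle wells; hits needed this value within 50% of zero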
* marks the source's active call; other numbers are inactive results; i = inactive; ? = inconclusive; nt = no result given.

SMILES | Env fusion inh | Yeast UUG start | eIF4H FP inh | MT1-MMP act inh | MT1-MMP act inh RFP | Rce1 inhib | CSC inhib | PABP FP inh
COc1ccc(CCNC(=O)c2cnccn2)cc1 | 9.7 | -21.4 | -3.8 | 1.4 | 1.3 | i | 4.1 | 4.1
CC(/C=N/NC(=O)NC1CCCCC1)=C\c1ccccc1 | -6.3 | nt | -13.1 | -4.5 | -1.9 | i | 22.6 | -5.7
O=C(N/N=C/c1cn(CC(=O)N2CCOCC2)c2ccccc12)c1cccnc1 | -4.4 | nt | 3.4 | 2.1 | 1.1 | i | 1.1 | 11.1
CC(=O)Nc1ccc(S(=O)(=O)NCC(C)NS(=O)(=O)c2ccc(NC(C)=O)cc2)cc1 (centres undefined) | -11.6 | -23.3 | 5.4 | -0.2 | 5.1 | i | nt | -11.3
CCOC(=O)N1CCN(C(=O)CSCC(=O)Nc2nc(-c3ccc(C)cc3)cs2)CC1 | -4.8 | -2.5 | -0.9 | 7.2 | -13.4 | i | -0.4 | 8.9
CCOc1ccc(/C=C2\CCC(C3CCCC3)C2=O)cc1OC (centres undefined) | -0.7 | nt | -7.4 | 0.7 | -4.0 | i | -3.0 | -12.3
CS(=O)(=O)N1CCc2cc(C(=O)N3CCCCC3)ccc21 | nt | -14.4 | 0.4 | 4.4 | 4.3 | i | -5.6 | 11.4
CCC(=O)N1CCc2cc(Br)cc(S(=O)(=O)N3CCCCC3CC)c21 (centres undefined) | 10.3 | -6.7 | 7.0 | 0.2 | -0.7 | i | 3.8 | 6.8
CCC(=O)Nc1cccc(-c2cn3ccsc3n2)c1 | nt | -6.1 | -14.3 | 3.2 | 1.9 | i | 1.8 | -10.6
CC(=O)Nc1ccc(S(=O)(=O)NC2Cc3ccccc3C2)cc1 | 7.4 | -26.0 | -1.9 | 9.8 | 3.4 | i | 7.0 | -3.4
COc1cc(/C=C(\C#N)C(=O)NCC2CCCO2)cc(OC)c1OC (centres undefined) | 7.0 | -7.2 | -7.3 | -0.1 | -2.3 | i | -13.3 | -5.3
COc1ccccc1CNS(=O)(=O)c1ccc(-n2cccn2)cc1 | 4.4 | -10.1 | -8.2 | 10.0 | -1.5 | i | -6.4 | 0.3
C=CCn1c(SCC(=O)N2CCCCC2)nnc1-c1ccncc1 | 5.1 | nt | 0.6 | -1.2 | -4.2 | i | 12.1 | -2.5
COc1ccc(OC)c(CN2CCN(C(=O)c3ccc(F)cc3)CC2)c1 | 3.1 | -10.9 | 2.5 | 0.5 | 2.1 | i | -16.5 | 1.7
COCCCNC(=O)c1cc(Sc2nnc(C)s2)nc2ccccc12 | 15.9 | -15.5 | -9.0 | 4.5 | 3.4 | i | 6.8 | 4.4
COc1ccc(OC)c(Cc2nnc(CCC(=O)N3CCCCC3c3nccs3)o2)c1 (centres undefined) | -48.0 | 4.4 | -7.9 | -0.6 | -0.2 | i | -12.2 | -11.2
CCCCC1=CC2=C(c3ccco3)C(=O)C(C)(OC(=O)c3ccc(OC)cc3)C(=O)C2=CN1C1CCCCC1 (centres undefined) | nt | -7.1 | 10.4 | -8.4 | 7.0 | i | 11.6 | 22.9
Cc1ccc(CN2CC(C(=O)N(Cc3nnc(-c4ccccc4Cl)o3)C3CC3)CC2=O)cc1 (centres undefined) | -15.7 | -14.4 | nt | -7.1 | -0.7 | i | 3.4 | nt
COc1ccc(C2=NOC(c3nnc(-c4ccccc4)o3)C2)cc1 (centres undefined) | -3.0 | -18.1 | nt | -0.3 | 0.6 | i | nt | nt
COC(=O)CNC(=O)C1CCN(S(=O)(=O)c2cnc[nH]2)CC1 | -2.3 | -10.0 | -1.1 | -0.3 | 4.3 | i | -11.4 | -9.5
CC(=O)NC(Cc1cccc(C)c1)C(=O)NC1CCN(S(=O)(=O)c2ccccc2)CC1 (centres undefined) | -2.6 | 17.4 | -1.8 | 5.1 | 5.1 | i | 20.4 | 3.1
CCN1CCN(c2cc(C)c3cc(NC(=S)N(C)Cc4ccccc4)ccc3n2)CC1 | -2.7 | -20.5 | 2.3 | 1.3 | 0.3 | i | 18.5 | 4.9
COc1ccc(OC)c(/C=N/NC(=O)c2[nH]ncc2Br)c1 | -2.7 | -13.7 | -3.6 | -3.5 | 1.2 | i | 6.4 | -5.4
CCc1ccc(S(=O)(=O)NCC2(N3CCOCC3)CCCCC2)cc1 | 4.0 | -11.1 | nt | -5.8 | -0.2 | nt | -4.0 | nt
CCN(CC)CCNC(=O)Cn1c(C)cc2ccccc2c1=O | -19.1 | -11.4 | -2.8 | 1.7 | 2.2 | i | -10.3 | -13.8
Cc1cccnc1NC(=O)c1ccc(S(=O)(=O)N2CCCCCC2)cc1 | 0.6 | nt | nt | 1.7 | 0.9 | i | -10.8 | nt
COc1cc(/C=N/NC(=O)C(Cc2c[nH]c3ccccc23)NC(=O)OCC(C)C)cc([N+](=O)[O-])c1OCc1ccccc1 (centres undefined) | 0.6 | -21.8 | -3.0 | 2.3 | 5.6 | i | -0.5 | -6.7
O=C1CC(c2ccccc2)CC2=C1C(c1ccccn1)Nc1ccccc1N2 (centres undefined) | nt | -14.7 | 1.9 | 8.3 | 2.0 | i | -3.6 | -4.7
O=C(CN1CCc2ccccc2C1)NC1CCCC1 | 10.6 | nt | 0.8 | 7.2 | 5.6 | i | -7.7 | -10.7
O=C(O)c1cccc(Nc2ncnc3c2cnn3-c2ccccc2)c1 | nt | -28.7 | 10.2 | 5.4 | 4.8 | i | -13.0 | 22.5

Single records, from the list above. Order of values: Env fusion inh	Yeast UUG start	eIF4H FP inh	MT1-MMP act inh	MT1-MMP act inh RFP	Rce1 inhib	CSC inhib	PABP FP inh
O=C(O)c1cccc(Nc2ncnc3c2cnn3-c2ccccc2)c1 is listed with nt	-28.7	10.2	5.4	4.8	i	-13.0	22.5
CC(=O)NC(Cc1cccc(C)c1)C(=O)NC1CCN(S(=O)(=O)c2ccccc2)CC1 (centres undefined) is listed with -2.6	17.4	-1.8	5.1	5.1	i	20.4	3.1

Other entries follow.
SMILES | Env fusion inh | Yeast UUG start | eIF4H FP inh | MT1-MMP act inh | MT1-MMP act inh RFP | Rce1 inhib | CSC inhib | PABP FP inh
NS(=O)(=O)c1ccc(-c2ccc(/C=N/NC(=O)c3ccccc3O)o2)cc1 | 2.0 | nt | 1.8 | -2.8 | -3.4 | i | 7.4 | 7.0
CC(=O)Nc1ccccc1OCC(=O)N(Cc1ccccc1)C(C)C | 61.1* | -12.7 | -14.0 | 4.8 | -9.2 | i | -8.3 | -3.4
Cc1ccc(C2(C)NC(=O)N(CC(=O)NCc3cccc(Cl)c3)C2=O)cc1 (centres undefined) | 1.1 | 13.7 | -12.6 | -0.1 | 3.2 | i | -4.5 | -4.2
CCn1c(C)c(C)c2cc(C(=O)NCCCN3CCCC3)ccc21 | -4.1 | -0.3 | 0.9 | 4.5 | 9.6 | i | -13.7 | -5.1
CNc1c([N+](=O)[O-])cnn1-c1ccccc1F | 10.7 | nt | -6.1 | -0.1 | 1.0 | i | -6.8 | -2.5
CC(=O)Nc1cc2c(cc1[N+](=O)[O-])-c1ccc(F)cc1C2 | -35.3 | 1.0 | nt | 2.0 | -4.2 | nt | nt | nt
CCN(CC)S(=O)(=O)c1ccc(C)c(NC(=O)COC(=O)CN2C(=O)NC(C)(C)C2=O)c1 | -8.4 | 5.3 | nt | 0.7 | 0.1 | i | 3.3 | nt
Fc1ccc2cnc(-c3cccnc3)cc2c1 | -96.2 | -0.1 | nt | -2.3 | 2.6 | nt | 3.1 | nt
C/C(=N/NC(=O)CN1CCN(Cc2ccccc2Cl)CC1)c1cccs1 | 12.3 | 8.1 | 0.8 | 2.6 | -0.2 | i | -3.2 | 0.4
COc1ccc(NC(=O)Nc2nnc(CC(=O)NCc3ccccc3)s2)cc1 | 10.6 | nt | 2.0 | 2.6 | -6.5 | i | 6.9 | -4.4
COc1cccc(CNCc2ccc(OC)cc2OC)c1 | 5.5 | -11.5 | -0.9 | -1.7 | -1.9 | i | 6.3 | -3.8
O=C(Oc1ccc(F)cc1)N1CCOCC1 | 5.2 | -11.5 | -5.1 | 1.0 | 3.1 | i | -7.0 | -5.2
CC(C)(C)NC1=CC(=O)OC12CCCCC2 | -43.6 | -4.3 | 3.8 | -2.7 | 6.3 | i | -1.9 | -5.2
COc1cccc(N2CC(C)Cn3c2nc2c3c(=O)n(CCN3CCOCC3)c(=O)n2C)c1 (centres undefined) | -56.9 | 7.1 | -3.5 | 6.6 | -1.1 | i | -4.1 | -9.3
O=C(C1CCN(S(=O)(=O)c2cccc3nsnc23)CC1)N1CCc2ccccc2C1 | nt | 14.2 | -10.7 | 1.6 | -5.3 | i | -23.4 | -10.9
O=C(c1ccc(-n2nc(C(F)(F)F)c3c2CCCC3)cc1)N1CCOCC1 | 2.9 | nt | -1.6 | -0.6 | -2.5 | i | -9.6 | -9.8
C[C@H](O)[C@@H]1CN2CCc3c([nH]c4ccccc34)[C@@H]2C[C@@H]1N(C)Cc1cc(Cl)cc(Cl)c1 | -35.9 | 1.1 | nt | -6.6 | 1.9 | nt | nt | nt
O=C1C(C2=NC(c3ccccn3)C3C(=O)N(c4ccc(Cl)cc4Cl)C(=O)C23)=C(O)c2ccccc21 (centres undefined) | -19.0 | nt | 2.8 | 1.2 | -2.5 | i | ? | 2.3
COCCNC(=O)C(=O)Nc1cc2c3c(c1)CCC(=O)N3CCC2 | 10.2 | -16.3 | -13.0 | -6.8 | -0.2 | i | 1.8 | -2.1
CSc1cccc(CNC(=O)C2CCC(=O)N(Cc3cccc(C(F)(F)F)c3)C2)c1 (centres undefined) | -26.8 | 10.9 | -2.5 | 1.1 | -3.6 | i | -4.0 | -13.2
CC(=O)c1ccc(N2CCN(S(=O)(=O)c3ccc4c(c3)NC(=O)CC(=O)N4)CC2)cc1 | -16.5 | -2.2 | 36.3 | 0.1 | 1.0 | i | -4.2 | 8.1
Cc1ccc2nc(-c3ccc(Br)cc3)cc(C(=O)NCC3CCCO3)c2c1 (centres undefined) | -11.6 | -14.5 | nt | 0.7 | -9.1 | nt | nt | nt
Cc1c(C(=O)NNC(=O)c2csc(N3CCOCC3)n2)oc2ccc(Br)cc12 | -31.0 | -5.7 | nt | 13.0 | 7.2 | nt | nt | nt
COc1ccc(-c2nc(-c3ccccc3)c(-c3cccs3)[nH]2)cc1OC | -18.5 | -12.4 | -1.1 | 6.3 | -9.3 | i | 43.7 | -1.3
CCCCCCCc1nn2c(=O)cc(O)nc2s1 | 21.4 | 20.4 | 2.0 | -0.8 | 2.9 | i | 1.2 | 6.6
CC(=O)N1CCCC(C)(C(=O)N(C)Cc2cccc3ccccc23)C1 (centres undefined) | 18.3 | -4.1 | nt | -0.7 | -1.1 | nt | nt | nt
CCCCCn1c(=NC(C)=O)c(C#N)cc2c(=O)n3ccccc3nc21 | 4.3 | nt | 16.7 | -4.8 | 5.8 | i | -11.3 | 0.8
CC(C)CCN(CC(=O)NC(C)(C)C)C(=O)C(=O)Nc1ccc2c(c1)OCCO2 | 14.7 | nt | -8.5 | -1.2 | 2.3 | i | -3.5 | -3.9
Cc1ccc2cccc(S(=O)(=O)N3CCN(c4cccc(Cl)c4)CC3)c2n1 | nt | nt | -7.0 | -1.8 | 1.5 | i | 19.7 | -11.9
Nc1ncnc2nc(SCCOc3ccc(Cl)cc3)[nH]c12 | 8.5 | nt | -4.8 | 2.3 | 1.8 | i | nt | -10.3
O=C(N/N=C/c1cccc2cccnc12)c1ccccc1O | 15.5 | -42.9 | 19.1 | 3.5 | -4.0 | i | 8.4 | -3.8
CN(C)C(=O)CCc1ccc2c3c([nH]c2c1)[C@]1(C)[C@@H](C(=O)N2CCOCC2)C[C@H](CC(=O)NCCc2ccccn2)C(=O)N1CC3 | 14.4 | 0.9 | nt | 1.6 | 5.8 | nt | nt | nt

High-throughput results as filed in PubChem.

These rows are one share of the data; the hit share may differ from the screen's.
